# VDR inh = Inhibitors of the vitamin D receptor (VDR): qHTS; Potency, µM, without a hit: max response, negative = inhibition, most hits filed as inhibitors; VDR-SRC2-3 peptide fluorescence polarization, 2 h; AID 504847, 2011; 0.93% of 400,000 active; active = well fitted inhibition curve with a large enough effect; inconclusive = small, poorly fitted or top-dose-only effect, or another doubt; inactive = no such curve, though single readings can be large or run the other way; note: series mostly up to about 120 µM
# Target sequence (P11473 whole entry, looked up): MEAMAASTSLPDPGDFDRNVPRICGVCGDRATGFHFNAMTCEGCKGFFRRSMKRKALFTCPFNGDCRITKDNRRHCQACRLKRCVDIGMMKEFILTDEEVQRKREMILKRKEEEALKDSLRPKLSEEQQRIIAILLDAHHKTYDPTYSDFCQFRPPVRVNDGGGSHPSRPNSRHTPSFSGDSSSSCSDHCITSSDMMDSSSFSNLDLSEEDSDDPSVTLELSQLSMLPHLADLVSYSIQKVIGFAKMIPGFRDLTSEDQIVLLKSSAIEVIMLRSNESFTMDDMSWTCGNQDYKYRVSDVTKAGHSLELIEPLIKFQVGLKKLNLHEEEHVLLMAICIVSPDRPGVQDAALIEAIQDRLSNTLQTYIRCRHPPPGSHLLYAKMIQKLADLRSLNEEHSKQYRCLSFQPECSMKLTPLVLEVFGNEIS
#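 Fluorescence polarization assay of small-molecule disruption of VDR binding to coregulator peptide SRC2-3. Compounds and controls pin-transferred, then read after 2 h incubation at ambient room temperature.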
# Numbers without * were called inactive; ? = inconclusive; [ ] = another dose, or the depositor's remark. % is set by controls: 0 for no effect and ±100 for the full control effect; potency is the fitted concentration of half-maximal effect. The list is partial (hit frequency here may not be typical).
SMILES,VDR inh
CC1(C)C(C#N)=C(N)Oc2c1c(=O)oc1ccccc21,-11.8%
Cc1cccc(CSc2nc(=O)c3c(n2C)NC(=O)CC3c2cc(F)cc(F)c2)c1 (stereo not drawn),3.3%
CCn1c2ccccc2c2cc(NC(=O)CSc3nnc(-c4ccccc4OC)n3N)ccc21,-3.3%
COc1ccc(CN2CCC(C(=O)Nc3ccc(Oc4ccccc4)nc3)CC2)cc1F,-15.7%
CCCCC(=O)OCCNC(=O)c1cc2ccccc2oc1=O,5.1%
COn1c(=O)c(-c2ccc(C)cc2)[n+]([O-])c2ccccc21,-16.5%
COc1ccccc1NC(=O)CCN1CC(C)OC(C)C1 (stereo not drawn),11.1%
COc1ccccc1NC(=O)C1=C(C)NC(SCC(=O)Nc2ccc(C(=O)O)cc2)=C(C#N)C1c1cccs1 (stereo not drawn),-6.5%
O=C(CCC1CCCCC1)Nc1ncn[nH]1,-8.0%
Cc1ccc(-n2ncc3c(NCc4ccccc4)ncnc32)cc1Cl,9.8%
Cc1oc(-c2ccc(C(=O)Nc3ccc(F)cc3F)cc2)nc1COc1ccccc1,15.7%
COc1ccccc1-c1cc(Nc2ccn[nH]2)ncn1,44.7µM*
CCOc1cc(NC(=S)NCCCOC)c(OCC)cc1NC(=O)c1cccs1,-9.0%
CCC(C)(C)NC(=O)c1ccccc1Oc1ccccc1,9.0%
CCSc1ccccc1C(=O)N1CCN(c2ccc([N+](=O)[O-])cc2)CC1,-1.9%
Cc1cc(NC(=O)CCC(=O)N(CC(=O)NC2CCCC2)c2ccc(Cl)c(Cl)c2)no1,4.7%
O=c1c2ccccc2nnn1Cc1ccc(Br)cc1,7.1%
COc1ccc(CC(=O)N2CCN(S(=O)(=O)c3ccc(Cl)s3)CC2)cc1,7.1%
CCOC(=O)CN1CC23C=CC(O2)C(C(=O)NC2CCCCC2)C3C1=O (stereo not drawn),-4.6%
CC(C)Cn1c(SCC(=O)N2CCN(S(=O)(=O)c3ccccc3)CC2)nc2ccccc21,-2.0%
O=C(Nc1cccnc1)c1cc(-c2cccc(Br)c2)nc2ccccc12,3.3%
N#C/C(=C\c1ccc[nH]1)C(=O)N1CCCCC1,1.1%
Cn1c(SCC(=O)NC2CCS(=O)(=O)C2)nnc1-c1ccco1 (stereo not drawn),-13.0%
Cc1cccc(C)c1OCc1cc(C(=O)N2CCCC2c2nonc2C)no1 (stereo not drawn),30.7%[activator]
O=C1CSC(=S)N1/N=C/c1ccc(O)c(O)c1O,?

# Sorted by formula weight (low to high): 6 of the compounds above
SMILES,VDR inh
N#C/C(=C\c1ccc[nH]1)C(=O)N1CCCCC1,1.1%
CCC(C)(C)NC(=O)c1ccccc1Oc1ccccc1,9.0%
Cc1ccc(-n2ncc3c(NCc4ccccc4)ncnc32)cc1Cl,9.8%
O=C(Nc1cccnc1)c1cc(-c2cccc(Br)c2)nc2ccccc12,3.3%
Cc1cccc(CSc2nc(=O)c3c(n2C)NC(=O)CC3c2cc(F)cc(F)c2)c1 (stereo not drawn),3.3%
CC(C)Cn1c(SCC(=O)N2CCN(S(=O)(=O)c3ccccc3)CC2)nc2ccccc21,-2.0%

# Other compounds.
SMILES,VDR inh
COc1ccc(Br)cc1C(=O)Nc1ccc2oc(-c3cccnc3)nc2c1,-11.7%
Cc1cc(C(=O)Nc2ccc3c(c2)CCC3)ccc1[N+](=O)[O-],5.0%
O=C(COc1ccc(/C=N/NS(=O)(=O)c2ccccc2)cc1)N1CCOCC1,4.9%
COc1cccc(NC(=O)CN(C)C(=O)c2ccc3c(c2)CC(c2ccccc2)OC3=O)c1 (stereo not drawn),-5.3%
CC(Sc1ncc(C(F)(F)F)cc1Cl)C(=O)NC(N)=O (stereo not drawn),7.6%
Cn1c(C(=O)N2CCC(C(=O)NCCc3ccccc3)CC2)cc2sccc21,-5.4%
COc1ccccc1C(OC(=O)c1cccs1)C(=O)NCc1ccco1 (stereo not drawn),?
CCn1c(C(=O)N2CCC(C(=O)N3CCN(c4ccccn4)CC3)CC2)cc2sccc21,2.8%
CCN(CC(=O)Nc1ccccc1OC)C(=O)CCc1ccccc1,-15.9%
CC1CCCN(C(=O)c2cc3c(=O)n4ccccc4nc3s2)C1 (stereo not drawn),?
O=S1(=O)c2ccc(Br)cc2OC(COCc2ccccc2)CN1Cc1ccccc1 (stereo not drawn),?
CCN1CCCC1CNC(=O)c1cc2c(-c3cccc(OC)c3)nn(C)c2s1 (stereo not drawn),-1.6%
COc1cccc(/C=C/c2ccc3ccccc3n2)c1OC(C)=O,2.0%
Cc1nnc(SCC(=O)N(C2CCCCC2)C2CCS(=O)(=O)C2)n1N (stereo not drawn),23.7%
COc1ccccc1-c1nnc(-c2ccc(C)cc2)o1,5.0%
CC1(C)Cc2ccccc2-c2nnnn21,-2.9%
O=C(NCc1ccccc1)C1=C[C@@H](c2csc3ccccc23)C[C@@H](OCc2ccc(CO)cc2)O1,-3.7%
CCOC(=O)c1c(-c2ccccc2)nc2ccccn12,14.3%
Cc1ccc(N(Cc2cc(=O)[nH]c3ccccc23)C(=O)C(C)C)cc1,-4.4%
Cc1c(CC(=O)NCCc2ccc(Cl)cc2)c(=O)oc2c(C)c3occ(C(C)(C)C)c3cc12,5.9%
N#C/C(=C(/O)c1cccs1)c1nnc2n1CCCCC2,5.4%
CC1(C)CC(=O)C(C2C3=C(CC(C)(C)CC3=O)Oc3c(Br)cc(Br)cc32)=C(O)C1 (stereo not drawn),-18.8%
O=C(C1=C[C@H](c2ccc3c(c2)OCO3)C[C@H](OCCCCO)O1)N1CCN(Cc2ccc3c(c2)OCO3)CC1,1.7%
Fc1ccccc1NC(=S)NN(Cc1ccccc1)c1ccccc1,-6.6%
CCCCN(Cc1nc2ccccc2c(=O)[nH]1)C(=O)c1nn(C)c(=O)c2ccccc12,-12.1%
# Next compounds
SMILES,VDR inh
O=C(COC(=O)c1n[nH]c2ccccc12)c1cccc(Br)c1,11.5%
Cc1oc2ccccc2c1-c1cn2c(n1)SCC2,-18.7%
O=C(Cn1nnc(-c2ccccc2Cl)n1)N/N=C/c1ccc2c(c1)OCO2,-3.4%
O=S(=O)(c1cccnc1)N1CCn2cccc2C1c1ccccc1F (stereo not drawn),-12.6%
COc1cc2c(cc1OC)CN(C(=O)c1ccncc1)CC2,-20.9%
COc1ccc(OC)c(CNC(=O)c2c(C)oc3ncn(CC(C)C)c(=O)c23)c1,-1.0%
CCOC(=O)C1CCCN(C(=O)c2cc(S(=O)(=O)N3CCCCC3)ccc2Cl)C1 (stereo not drawn),-14.0%
CCc1ccc(OCCOCC(O)CN(CCO)CCO)cc1 (stereo not drawn),10.2%
COc1ccc(-c2cn(-c3ccc(C)c(C)c3)c(=S)[nH]2)cc1OC,-27.4%
Cc1cccc(C2Nc3ccccc3C(=O)N2c2ccc(F)cc2)n1 (stereo not drawn),6.4%
CCOC(=O)c1c(-c2ccncc2)csc1N,-24.5%
CCOc1ccc(CN(C)CC(=O)Nc2cc(C)c(C)cc2[N+](=O)[O-])cc1,-11.8%
OC12CCCCC1C(c1ccc3c(c1)OCO3)N(Cc1ccc(F)cc1)CC2 (stereo not drawn),10.1%
Cc1ccccc1Sc1ncccc1[N+](=O)[O-],?
O=C(Nc1ccc(F)c(Cl)c1)c1ccc2c(c1)OCO2,-18.1%
COc1cc2ccccc2cc1C(=O)Nc1ccc2oc(-c3cccc(Cl)c3Cl)nc2c1,3.2%
O=C(NCc1ccc(F)cc1)C1CCC(CNS(=O)(=O)c2ccccc2)CC1 (stereo not drawn),?
CS(=O)(=O)N1CCN(c2ccc([N+](=O)[O-])c(NCc3cccnc3)c2)CC1,1.4%
COc1cccc(-n2nc3c(=S)[nH]nc(C)c3c2C)c1,-20.0%
O=C(Nc1ccc(Cn2ccnc2)cc1)c1cccc(C(F)(F)F)c1,-4.7%
Fc1ccccc1CNc1cc(Cl)cc(Cl)c1,15.5%
Cc1nonc1CN(C)C(=O)c1ccc(OC2CCN(Cc3ccccn3)CC2)cc1,1.8%
O=C(/C=C/c1ccccc1)NCCS(=O)(=O)N1CCN(c2ccccc2)CC1,3.6%
CC(C)N(C1=CC(=O)OC12CCCCC2)C(C)C,34.4%[activator]
CN(CCOc1ccc(Cl)cc1)C(=O)c1ccc2c(=O)n3c(nc2c1)CCC3,?
# Next records.
SMILES,VDR inh
CC(=O)/C(=N/Nc1ccccc1C)N1CCOCC1,-10.2%
CCN(CC)C(=O)CSc1ncnc2sccc12,-1.7%
CC(=O)/C(=C(/O)c1ccccc1)c1nc2ccccc2[nH]1,-28.6%
CC(=O)Nc1ccc(S(=O)(=O)NCC2CC3CCC2C3)cc1 (stereo not drawn),1.2%
COc1cccc(C(=O)N2CCC(n3nccc3NC(=O)C(OC)c3ccccc3)CC2)c1 (stereo not drawn),-9.4%
CCOc1ccc2nc(NC(=O)C(CC)Sc3nc(C)cc(=O)[nH]3)sc2c1 (stereo not drawn),15.1%
COc1cc(CCC(=O)Nc2sccc2C#N)cc(OC)c1OC,14.4%
CCOC(=O)c1ccc(NC(=O)COc2ccccc2CNCCO)cc1,0.6%
CC1CCCCC1NC(=O)c1cc2ccccc2o1 (stereo not drawn),-18.4%
O=C(NN1CCN(Cc2ccccc2Cl)CC1)c1ccc(Br)cc1,-1.2%
FCCCOc1ccc(-c2ccnc3ncnn23)cc1,-11.4%
Cc1ccc(C)c(N2CCN(c3nc4ccccc4c(=O)n3Cc3ccccc3)CC2)c1,-7.2%
Cc1ccsc1CN(C(=O)COc1cccc(C)c1C)C1CCS(=O)(=O)C1 (stereo not drawn),16.2%
CNC(=O)CC12CC3CC(CC(C3)C1)C2,-5.5%
O=C(CCN1CCC(c2ccccc2)C1)c1ccccc1 (stereo not drawn),-12.2%
O=[N+]([O-])c1cccc(Cl)c1NCCNc1ncc(C(F)(F)F)cc1Cl,-9.0%
COc1ccc(N2C(=O)CCSC23C(=O)N(Cc2ccc(F)cc2)c2ccccc23)cc1 (stereo not drawn),3.9%
Cc1cc(NC(=O)CSc2nnc(-c3cccnc3)n2Cc2ccccc2)no1,-3.8%
O=S1(=O)CCC(NC(=S)N2CCCCCC2)C1 (stereo not drawn),-4.4%
CCN(CC)CCNC(=O)c1ccc2c(=O)n3nc(Nc4cccc(Cl)c4C)sc3nc2c1,-9.6%
Cc1ccccc1NC(=O)Cn1nc(-c2ccccc2)nc(Cc2ccccc2)c1=O,3.1%
CCOC(=O)c1c(N)c(C#N)c2n1CCCCC2,1.6%
CCCCN1CC(COCc2ccccc2)Oc2cccc(Oc3cc(C)c(C)c(C)c3)c2S1(=O)=O (stereo not drawn),-11.1%
O=C(Nc1ccccc1N1CCCC1)c1ccccc1F,12.9%
COc1ccc(C(=O)/C(=C/c2cccs2)c2nc3ccccc3o2)cc1,31.6µM*

# 4 compounds already listed, ordered by the number in VDR inh, descending.
SMILES	VDR inh
COc1cc(CCC(=O)Nc2sccc2C#N)cc(OC)c1OC	14.4%
Cc1cc(NC(=O)CSc2nnc(-c3cccnc3)n2Cc2ccccc2)no1	-3.8%
CCN(CC)CCNC(=O)c1ccc2c(=O)n3nc(Nc4cccc(Cl)c4C)sc3nc2c1	-9.6%
CC1CCCCC1NC(=O)c1cc2ccccc2o1 (stereo not drawn)	-18.4%

# (listing goes on)
SMILES,VDR inh
Cn1nccc1CNC(=O)c1c(Cl)cnn1C,-5.4%
CCN(Cc1ccccc1)c1ccc(/C=N/N2CCOCC2)cc1,-19.7%
Cc1cc(C)n(/N=C/c2cccc([N+](=O)[O-])c2)c(=O)c1,13.6%
COc1ccc(Br)c(C(=O)Nc2cc3c(cc2N2CCOCC2)n(C)c(=O)n3C)c1,-14.2%
CCn1nc(NC(=O)c2ccncc2)c2cc3ccc(C)cc3nc21,-6.5%
COc1ccc(OC)c(-c2c3c([nH]c(=S)c2C#N)CCCC3)c1,2.9%
COc1cc(NC(=O)C2CCCC2)c(OC)cc1Cl,-9.8%
CC1CC(C)CN(CCCNC(=O)c2c(O)nc3ccccn3c2=O)C1 (stereo not drawn),1.3%
COc1ccc(NC(=O)CN(c2ccc(C)cc2)S(=O)(=O)c2cccc3nonc23)cc1OC,-10.6%
Cc1cc(NC(=O)CSc2nc3ccccc3c(=O)n2CCCC(=O)NCc2ccco2)n[nH]1,11.3%
COc1ccccc1CNc1ccc2nnc(CCNC(=O)c3ccccc3)n2n1,-18.8%
CCN1CCN(C(=O)C2=CC(c3ccc(C)cc3)=NS(=O)(=O)N2C)CC1,-20.5%
Oc1ccc(-c2cn3cc(C(F)(F)F)ccc3n2)cc1,-15.1%
O=C(O)c1cccc(-c2ccc(/C=N/NC(=O)c3cccnc3)o2)c1,2.0%
NC(=O)c1ccsc1NC(=O)CN1CCN(S(=O)(=O)c2ccccc2C(F)(F)F)CC1,-7.6%
CCc1ccc(NC(=O)C(C)OC(=O)c2ccc(-n3cnnn3)cc2)cc1 (stereo not drawn),-10.3%
Cc1cc(NS(=O)(=O)c2ccc(NS(=O)(=O)c3cc(C)c(Cl)cc3Cl)cc2)no1,-12.2%
CN(NC(=O)COc1ccccc1)c1ccccc1,-0.2%
Cc1onc(-c2ccccc2)c1C(=O)NC(C)c1ccccc1 (stereo not drawn),9.6%
O=C(COC(=O)Cn1cnc2ccccc2c1=O)Nc1ccccc1OC(F)F,-11.1%
Cc1cc(=O)[nH]c2nnc(SCc3c(F)cccc3Cl)n12,1.3%
COc1ccc(C(=O)Nc2ccc(N3CCN(c4ccc(OC)cc4)CC3)c(C#N)c2)cc1,-11.2%
CSCCC(NC(=O)c1ccco1)C(=O)NCC(c1ccco1)N1CCCCC1 (stereo not drawn),-13.9%
CCC(Cc1ccccc1)n1c(=S)[nH]c2ccccc2c1=O (stereo not drawn),1.6%
Cc1ccc(O)c(-c2cc(C(=O)NCc3ccc4c(c3)OCO4)[nH]n2)c1,4.3%
COc1ccc(C(=O)CSc2nnc(CNC(=O)c3ccccc3)o2)cc1,5.5%
Cc1cccc2cc(/C=N/NC(=O)c3ccccc3O)c(Cl)nc12,-10.3%

# Random excerpt: two compounds from above, in no set order.
SMILES,VDR inh
COc1ccc(OC)c(-c2c3c([nH]c(=S)c2C#N)CCCC3)c1,2.9%
CCc1ccc(NC(=O)C(C)OC(=O)c2ccc(-n3cnnn3)cc2)cc1 (stereo not drawn),-10.3%
